A1 inh: inhibitors of the anti-apoptotic protein A1, read as caspase activation | MEF A1-2A-BIM cells, Caspase-Glo 3/7 luminescence, 3 h; percent of clofoctol response, vehicle zero | caspase activation, % (concentration not given with the values) | 330,000 tested, 0.066% active | AID 2462;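 active = over half of replicate activation scores above 10%, or exactly half above 10 with the replicate mean above 10; inconclusive = replicate mean below 10 yet half the replicates above 10; inactive = over half of replicates below 10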;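 also: wells of about 30 µL received 50 nL stock; many hits fall short of the cut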
Beta2AR agonist: human beta-2 adrenergic receptor agonism by FAP; P07550; Am2.2-beta2AR cells, FAP receptor internalization, flow cytometry; reference of the scale not given here; AID 504454; response, % (test concentration not listed); 340,000 tested, 0.43% active;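 active = response above a set limit, near 3 SD of response in nonfluorescent compounds, cut at about 42% in these data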;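 also: stock transfer was 100 nL into about 11 µL; a reference agonist was the positive control; negative values mostly stem from fluorescent compounds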
HNF4A DNA FP: change in binding of human HNF4 alpha to DNA; P41235; HNF4a-FITC DNA binding, fluorescence polarization, 1 h; activity change, % at 10 µM; 360,000 tested, 0.3% active; AID 1224865; in the data active = activity change above about 30%, passing the limit was not always enough;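 also: controls were the assay level and a saturating level of protein; the project sought stronger binding though the title names inhibitors; some compounds called inactive have numbers as strong as hits; positive values seem to mean higher polarization but the record does not say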
E coli growth: inhibitors of Escherichia coli growth | OD600, 23 h; active compounds read low | OD600 absorbance (test concentration not listed) | 330,000 tested, 0.21% active;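 active = OD600 absorbance below the run mean of sample wells minus 3.6 SD, in any replicate, cut at about 0.56 in these data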;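 also: stock transfer was 300 nL into about 60 µL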
LANA-H2A inh: blocks KSHV LANA binding to histone H2A/H2B. 320,000 tested, 0.6% active. AID 2629. Q9QR71. inhibition, % (concentration not given with the values). cell-free LANA-H2A/H2B peptide, fluorescence polarization; in the data active = inhibition mostly above about 10%, no sharp cut-off; inactive = mostly below about 6.7%;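 also: stock transfer was 7.5 nL into about 10 µL; 0% = median of vehicle wells and 100% = median of positive control wells; one replicate is shown; the record names a cut of 25% in any replicate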
Target sequence (Q9QR71 whole entry, looked up): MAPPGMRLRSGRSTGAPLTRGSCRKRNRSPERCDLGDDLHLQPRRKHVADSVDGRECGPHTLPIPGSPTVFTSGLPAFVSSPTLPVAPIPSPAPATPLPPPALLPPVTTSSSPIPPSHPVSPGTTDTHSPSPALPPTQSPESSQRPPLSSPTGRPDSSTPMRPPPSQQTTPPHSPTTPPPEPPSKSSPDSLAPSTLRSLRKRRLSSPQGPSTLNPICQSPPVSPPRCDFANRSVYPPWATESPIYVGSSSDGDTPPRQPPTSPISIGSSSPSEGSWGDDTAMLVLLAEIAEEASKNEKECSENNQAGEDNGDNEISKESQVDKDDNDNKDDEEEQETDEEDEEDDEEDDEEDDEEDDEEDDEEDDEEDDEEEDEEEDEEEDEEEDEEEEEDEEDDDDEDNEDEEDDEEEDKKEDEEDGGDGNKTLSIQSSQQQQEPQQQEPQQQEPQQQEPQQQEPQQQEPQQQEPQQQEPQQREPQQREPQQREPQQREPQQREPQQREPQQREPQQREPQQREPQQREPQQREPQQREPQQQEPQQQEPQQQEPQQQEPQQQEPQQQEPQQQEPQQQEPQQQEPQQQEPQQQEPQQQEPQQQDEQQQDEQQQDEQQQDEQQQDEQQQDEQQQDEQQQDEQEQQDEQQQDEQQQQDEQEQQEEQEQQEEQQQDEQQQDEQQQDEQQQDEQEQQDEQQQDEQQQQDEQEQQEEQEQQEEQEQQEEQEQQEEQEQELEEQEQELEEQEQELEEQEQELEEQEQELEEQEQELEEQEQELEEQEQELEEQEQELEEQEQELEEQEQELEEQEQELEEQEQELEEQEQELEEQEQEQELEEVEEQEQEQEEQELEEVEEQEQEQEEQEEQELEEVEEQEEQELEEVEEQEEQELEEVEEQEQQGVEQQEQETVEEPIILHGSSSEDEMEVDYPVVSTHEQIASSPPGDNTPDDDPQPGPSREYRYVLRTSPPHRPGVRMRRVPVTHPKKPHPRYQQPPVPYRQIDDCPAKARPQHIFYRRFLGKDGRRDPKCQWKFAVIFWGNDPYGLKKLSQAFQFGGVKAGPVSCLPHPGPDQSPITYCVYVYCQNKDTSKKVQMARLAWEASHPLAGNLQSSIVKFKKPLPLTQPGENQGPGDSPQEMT
Vif A3G: inhibitors of Vif binding to APOBEC3G peptide, primary screen, biochemical, TR-FRET, GST-Vif 1-94, biotin-A3G peptide, dose response retest (AID 1117319); 260,000 tested, 0.57% active; inhibition, %, or IC50 in µM where a hit was titrated; TR-FRET GST-Vif / biotin-A3G peptide binding; higher % means a stronger effect; test concentration not given here; strong numbers were not always called active;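 active = above the screen mean plus three standard deviations and confirmed in dose response; inconclusive = results disagree or hit not tested in dose response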;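 also: Vif residues 1-94 fused to GST binding biotinylated APOBEC3G peptide 110-148; 0% = full assay without inhibitor and 100% = GST in place of GST-Vif; retest series ran down from 100 µM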
UCH37 DUB inh: human UCH37 deubiquitinating enzyme inhibition | purified proteasome/UCH37, Ub-AMC cleavage fluorescence | inhibition, % (test concentration not listed) | 330,000 tested, 0.33% active | AID 588478;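 active = mean of two replicates above 20%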;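 also: 0% = compound-free wells with enzyme and 100% = wells lacking proteasome; stock transfer was 100 nL into about 20 µL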
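Schedule: 30 min plus 25 min, room temperature / Material: human UCH37 within purified proteasomes / Technique: AMC fluorescence intensity at 355/460 nm / Buffer or medium: pH 7.4 Tris-HCl (50 mM) with ovalbumin, ATP-MgCl2, DTT / Controls: wells without proteasome as full block, compound-free enzyme plus substrate as uninhibited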
Starred values were filed as active, the others as inactive; u = inconclusive; x = not tested or not shown.

Values in the order – A1 inh	Beta2AR agonist	HNF4A DNA FP	E coli growth	LANA-H2A inh	Vif A3G	UCH37 DUB inh
CC1CN(CC(O)COc2ccc(C#N)cc2)CCN1CC(O)COc1ccc(C#N)cc1 (stereo not given)
  0.5	-2	-0.3	0.69	-2.2	x	5.2
NS(=O)(=O)c1ccc(NC(=O)Nc2cccc3ccccc23)cc1
  0.0	9	0.1	0.68	7.5	-4%	-1.0
CCCN1C(=O)C2(C(C(=O)c3ccc(C)o3)=C(O)C(=O)N2CCCOC)c2ccccc21 (stereo not given)
  0.1	-4	1.8	0.7	-11	-7%	17
COc1ccc(C)cc1S(=O)(=O)NC(C)C(=O)NC1CC1 (stereo not given)
  0.9	4	0.1	0.73	-4.0	3%	-0.6
O=C(COC(=O)/C=C/c1ccccc1[N+](=O)[O-])Nc1ccc2[nH]c(=O)[nH]c2c1
  -0.2	-3	0.7	0.7	4.8	0%	-0.8
Cc1nc(C)c(-c2csc(Nc3ccc(O)c(C(=O)O)c3)n2)s1
  -2.5	-1	3.1	0.67	-0.3	x	-16
O=C(c1csc2ccccc12)N1CCN(c2ccccn2)CC1
  1.6	-7	-2.4	0.68	3.3	-6%	7.5
CCOC(=O)c1cn(-c2ccc(F)c(F)c2F)c2c(F)c(F)c(F)cc2c1=O
  -0.5	6	5.4	0.69	2.7	2%	5.6
CN(Cc1nc(C(c2ccccc2)c2ccccc2)no1)CC1COCCO1 (stereo not given)
  0.6	6	0.9	0.71	-0.7	x	3.4
CC(C)C(=O)NNC(=O)CSc1ncnc2c1cnn2-c1ccccc1Cl
  0.4	-3	4.0	0.72	1.6	-7%	6.5

(next part)
Values in the order – A1 inh	Beta2AR agonist	HNF4A DNA FP	E coli growth	LANA-H2A inh	Vif A3G	UCH37 DUB inh
C[C@H]1[C@H](C)CC[C@]2(C(=O)O)CC[C@]3(C)C(=CC[C@@H]4[C@@]5(C)CC[C@H](O)C(C)(C)[C@@H]5CC[C@]43C)[C@H]12
  1.3	15	-4.4	x	-2.1	-9%	5.3
O=Cc1ccccc1-c1cn(CN2C(=O)c3ccccc3C2=O)nn1
  -2.1	-23	-1.5	x	-0.4	x	3.1
Cc1c(Cl)c([N+](=O)[O-])nn1CCCC(=O)Nc1cccc(Cl)c1Cl
  -0.4	10	3.2	0.67	3.0	x	3.9
COC(CN(C)S(=O)(=O)c1cc2c3c(c1)CCC(=O)N3CCC2)OC
  1.5	11	-1.5	0.7	1.2	8%	3.6
COc1ccc(C2C(C(=O)NCc3ccccn3)CCC(=O)N2c2cc(OC)c(OC)c(OC)c2)cc1 (stereo not given)
  0.7	1	5.7	0.67	-1.7	-3%	4.8
Cc1ccc(-n2c(C)cc(C(=O)COC(=O)C3=NNC(=O)CC3)c2C)cc1
  -0.1	-1	0.8	0.69	-8.4	26%	6.5
O=C(/C(=N/N=C/c1ccc(O)c(O)c1)c1ccccc1)c1ccccc1
  0.6	6	-4.5	x	0.8	x	x
CNC(=O)/C(=C\c1ccc2c(c1)OCO2)NC(=O)c1ccc(Br)cc1
  0.3	-4	0.6	0.65	-1.4	x	5.5
CCOc1cc(/C=N/NC(=O)CSc2cccc3cccnc23)ccc1O
  0.0	16	-1.8	x	-7.7	9%	x
CCC(C)(C)c1ccc(Oc2ccc(NC(=O)COC(=O)C3=COCCO3)cc2)cc1
  -0.7	4	-1.5	0.74	-0.4	1%	4.9

The results go on:
Values in the order – A1 inh	Beta2AR agonist	HNF4A DNA FP	E coli growth	LANA-H2A inh	Vif A3G	UCH37 DUB inh
Cc1ccc(C)c(C(=O)CCC(=O)NCc2ccc(Cl)cc2)c1
  -0.9	8	8.6	0.69	-4.3	3%	-0.4
COC(=O)N/N=C/c1cc(N=Nc2ccccc2)ccc1O
  -1.7	3	0.5	x	3.0	12%	x
Cc1ccc(F)cc1NC(=O)Cc1nn(C)c(=O)c2ccccc12
  -0.3	-6	0.8	0.7	3.1	9%	4.1
O=C(C1=C(O)C(=O)N(CCN2CCOCC2)C1c1cccc(O)c1)c1cc2ccccc2o1 (stereo not given)
  x	-12	4.4	0.73	x	x	1.7
Cc1cc(C)c(C(=O)N(C)CC2CCCN(CCc3ccccc3F)C2)o1 (stereo not given)
  u	-1	-1.7	0.69	-1.3	x	4.7
Clc1ccc(CNc2ncccn2)cc1
  0.3	-3	4.7	0.68	-2.4	4%	4.6
NS(=O)(=O)c1ccc(NC(=O)CSc2nc(Nc3ccccc3)nc(N3CCOCC3)n2)cc1
  0.0	0	-4.5	0.69	-1.4	x	1.0
Cc1ccc(Nc2nc(C)c3c(n2)CC(C)CC3=O)c(C)c1 (stereo not given)
  -1.2	-2	0.7	0.67	-2.6	x	2.5
O=C(O)c1ccc(CSc2nnnn2C2CCCCC2)cc1
  -0.4	-4	-3.4	0.72	0.2	5%	2.7
O=C(O)c1n[nH]nc1-c1ccccc1
  0.2	0	-11	0.7	-0.7	6%	1.3

A second format for two compounds above.
Molecule,A1 inh,Beta2AR agonist,HNF4A DNA FP,E coli growth,LANA-H2A inh,Vif A3G,UCH37 DUB inh
Cc1cc(C)c(C(=O)N(C)CC2CCCN(CCc3ccccc3F)C2)o1 (stereo not given),u,-1,-1.7,0.69,-1.3,x,4.7
Clc1ccc(CNc2ncccn2)cc1,0.3,-3,4.7,0.68,-2.4,4%,4.6

Later entries
Values in the order – A1 inh	Beta2AR agonist	HNF4A DNA FP	E coli growth	LANA-H2A inh	Vif A3G	UCH37 DUB inh
COc1ccc(OC)c(-c2csc(-c3cccs3)n2)c1
  -0.6	13	-4.8	0.7	-3.1	x	-5.4
CC(C)CC(=O)Nc1cccc(-c2nc3ccccc3[nH]2)c1
  -1.7	15	-2.0	0.67	-1.8	15%	-0.6
O=C(CCCc1ccccc1)NCCCc1ccccc1
  0.0	-4	1.1	0.62	5.6	x	1.2
CCOc1cc(S(=O)(=O)N2CCN(c3ccc(F)cc3)CC2)c(OCC)cc1-n1cnnn1
  -0.3	8	3.5	0.73	5.4	8%	2.0
Cc1ccc(C(=O)CNc2cc(C)ccc2C)cc1
  0.2	0	1.8	0.74	3.5	x	1.2
O=C(Nc1ccccc1C(=O)NCCCn1ccnc1)c1ccc(Cl)cc1Cl
  -0.4	-9	-0.3	0.7	-1.4	-2%	-0.4
Cc1ccc(C(=O)Nc2nccs2)cc1S(=O)(=O)N1CCCCC1
  0.6	5	2.7	0.66	-3.5	0%	0.4
COc1ccc(C(C)C)cc1S(=O)(=O)Nc1ccncc1
  -0.7	-9	-6.2	0.67	0.9	x	1.5
CCOC(=O)c1c(NC(=O)c2ccco2)n(C2CCCCC2)c2nc3ccccc3nc12
  -0.4	-287	16	0.66	2.2	9%	-78
COc1cc(NC(=O)c2ccccc2Cl)ccc1NC(=O)c1cccs1
  0.3	-3	-8.2	0.64	5.6	x	2.0

Later entries:
Values in the order – A1 inh	Beta2AR agonist	HNF4A DNA FP	E coli growth	LANA-H2A inh	Vif A3G	UCH37 DUB inh
Cc1noc(C)c1COC(=O)[C@H](C)NS(=O)(=O)c1ccc(Cl)c(Cl)c1
  1.4	1	-8.7	x	1.4	-3%	-2.7
COc1ccc(CNC(=O)C(=O)NCC2OCCCN2S(=O)(=O)c2cccs2)cc1 (stereo not given)
  0.3	-4	4.0	0.74	-1.4	x	0.8
O=C(NCCCN1CCCCCC1)C1CC(=O)N(C2CCCC2)C1 (stereo not given)
  -0.1	33	31	0.65	-2.9	8%	-1.3
Cc1nnc(SCC(=O)Nc2ccc3c(c2)OCCO3)n1CC1CCCO1 (stereo not given)
  0.1	-5	-5.0	0.72	-7.1	2%	1.6
Nn1c(SCC(=O)Nc2ccc(N3CCOCC3)cc2)nnc1-c1ccccc1F
  0.8	-2	8.6	0.64	0.7	x	0.5
CC(C)NS(=O)(=O)c1ccc(OCC(=O)Nc2ccc3c(c2)OCCO3)cc1
  -0.3	-3	0.5	0.62	2.6	21%	5.0
CC(C)Oc1ccc(N2CC(C(=O)Nc3ccc(N4CCOCC4)cc3)CC2=O)cc1 (stereo not given)
  0.5	-1	8.3	0.7	2.9	-1%	-2.1
O=C(OCC(=O)c1ccc[nH]1)c1ccc(F)c(S(=O)(=O)N2CCOCC2)c1
  0.0	1	1.4	0.63	-2.9	x	2.0
CC1CCC2(CC1)C(Nc1cccc(Cl)c1)=NC(=S)N2CC#N (stereo not given)
  0.4	6	3.9	0.72	1.3	-6%	4.2
COC(=O)[C@@]1(Cc2ccccc2)[C@H]2C(=O)N(C)C(=O)[C@H]2[C@H]2CN=C(SCc3ccccc3)N21
  x	-2	-0.1	0.69	x	4%	3.7

(next part)
Values in the order – A1 inh	Beta2AR agonist	HNF4A DNA FP	E coli growth	LANA-H2A inh	Vif A3G	UCH37 DUB inh
CC1CCN(c2ccc(-c3cccs3)nn2)CC1
  -7.3	-2	1.3	0.61	-6.4	x	-13
COCc1nnc(NC(=O)c2cc(C(=O)OC)cc([N+](=O)[O-])c2)s1
  0.6	3	0.8	0.66	-1.8	x	4.7
CCCOc1ccc(N2CC(C(=O)Nc3ncccc3C)CC2=O)cc1 (stereo not given)
  0.3	-3	-4.1	0.72	1.1	-9%	2.3
Cn1c(=O)c2c(nc(Sc3ccccc3N)n2C)n(C)c1=O
  -0.7	0	2.5	0.65	0.1	2%	1.9
Cc1cccc(CCNC(=O)C2CCCN(S(=O)(=O)c3cnc[nH]3)C2)c1 (stereo not given)
  -1.1	-2	2.5	0.76	2.8	9%	5.1
CCn1cc(C(=O)N2CCN(c3ccccn3)CC2)c2cc(OC)c(OC)cc2c1=O
  0.6	-22	0.0	0.67	0.5	3%	3.6
Cc1ccc(Cl)cc1N(CC(=O)NC(C)c1ccccc1)S(C)(=O)=O (stereo not given)
  -0.1	3	-0.4	x	2.9	-4%	x
COc1cccc(NC(=O)c2nnn(CCc3ccccc3)c2N)c1
  -5.8	-4	5.4	0.73	-2.6	5%	4.4
Cc1ccc(OCCOc2ccc(Cl)cc2Cl)c([N+](=O)[O-])n1
  -0.7	-5	-1.0	0.67	0.1	5%	2.7
Cc1cc(C)nc(Sc2c(C)nn(-c3ccccc3)c2C)n1
  0.2	-1	2.1	0.73	-0.4	16%	1.7

Continuation.
Values in the order – A1 inh	Beta2AR agonist	HNF4A DNA FP	E coli growth	LANA-H2A inh	Vif A3G	UCH37 DUB inh
Cn1nc(C(F)(F)F)c(C#N)c1N1CCN(c2ccccc2)CC1
  -0.1	7	-0.8	x	-3.7	u	0.9
C[C@H](CO)N1C[C@H](C)[C@@H](CN(C)S(C)(=O)=O)Oc2ccc(N(C)C)cc2C1=O
  0.1	1	0.1	0.68	6.0	x	-5.7
Cc1ccc(Cn2c(SCCN3CCCCC3)nc3c2c(=O)n(C)c(=O)n3C)cc1
  0.3	-11	7.6	0.73	-3.3	-6%	2.1
COC(=O)C1=C(C)OC(N)=C(C#N)C1c1ccc(OC)c(CSc2ccccn2)c1 (stereo not given)
  -0.4	4	3.8	0.69	0.4	-5%	-0.1
Cc1cc(-n2c(C)cc(C(=O)COC(=O)CN=C3NS(=O)(=O)c4ccccc43)c2C)no1
  0.3	1	-0.4	0.67	-1.1	78%	3.2
